Sfp inh: Sfp phosphopantetheinyl transferase inhibition | Q9F4F7 | Biochemical Sfp PPTase activity, qHTS | Potency, µM, inactives show max response, negative = inhibition, actives largely listed as inhibitors | 310,000 compounds, 3.5% hits; active = well fitted inhibition curve with a large enough effect; inconclusive = small, poorly fitted or top-dose-only effect, or another doubt; inactive = no such curve, though single readings can be large or run the other way;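 also: the enzyme is Sfp with the accession as filed and its product quenches rhodamine fluorescence; potency is read from the fitted curve at half-maximal effect; 0% = enzyme reaction without inhibitor and -100% = no enzyme wells; top concentration of the series not given in the record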
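Fluorescence-quenching assay: 15 nM Sfp-PPTase preincubated 15 min at room temperature with compound, then 5 uM rhodamine-CoA and 12.5 uM BHQ-2-labelled YbbR peptide added. Fluorescence (ex 525/em 598 nm) read at start and after 30 min; difference gives rate.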
ClpP mod: qHTS Assay for Activators of ClpP; 340,000 compounds, 1.9% hits; Potency, µM (highest dose often 57.5 µM), for the others: at the highest dose activity change, negative = active; purified B. subtilis ClpP, FRET peptide cleavage, 20 min; active = well fitted falling curve with a large enough effect; inconclusive = small, poorly fitted or top-dose-only effect; inactive = no such curve, though single readings can be large or run the other way; also: potency is read from the fitted curve at half-maximal effect; the source files actives as falling curves though it sought activators and does not explain the sign; nearly all actives have a fitted effect of over 65% in size; many hits overshoot -100%
Target sequence (P80244 whole entry, looked up): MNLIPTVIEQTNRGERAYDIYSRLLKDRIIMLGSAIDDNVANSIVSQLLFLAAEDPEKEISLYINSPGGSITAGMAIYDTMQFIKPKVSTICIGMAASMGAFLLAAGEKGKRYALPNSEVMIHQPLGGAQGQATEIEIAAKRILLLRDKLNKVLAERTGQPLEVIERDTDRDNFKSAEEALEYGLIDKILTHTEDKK
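Buffer: 100 mM Tris/HCl pH8, 100 mM KCl, 0.05% low protease BSA, 2.5% glycerol, 0.01% Tween-20. ClpP 10 microg/mL final; 20 min RT; delta FRET normalized to ADEP and DMSO controls.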
D2 ag: activates the human D2 dopamine receptor; activation, % (concentration not given with the values); P14416; AID 624465; 360,000 compounds, 0.084% hits; DiscoveRx PathHunter D2 beta-arrestin, luminescence, 90 min; 100% = 57 uM dopamine signal; in the data active = activation above about 40%; inconclusive = about 15% to 40%; inactive = below about 15%; also: the text of the record calls up to 30% inactive
Target sequence (P14416 whole entry, looked up): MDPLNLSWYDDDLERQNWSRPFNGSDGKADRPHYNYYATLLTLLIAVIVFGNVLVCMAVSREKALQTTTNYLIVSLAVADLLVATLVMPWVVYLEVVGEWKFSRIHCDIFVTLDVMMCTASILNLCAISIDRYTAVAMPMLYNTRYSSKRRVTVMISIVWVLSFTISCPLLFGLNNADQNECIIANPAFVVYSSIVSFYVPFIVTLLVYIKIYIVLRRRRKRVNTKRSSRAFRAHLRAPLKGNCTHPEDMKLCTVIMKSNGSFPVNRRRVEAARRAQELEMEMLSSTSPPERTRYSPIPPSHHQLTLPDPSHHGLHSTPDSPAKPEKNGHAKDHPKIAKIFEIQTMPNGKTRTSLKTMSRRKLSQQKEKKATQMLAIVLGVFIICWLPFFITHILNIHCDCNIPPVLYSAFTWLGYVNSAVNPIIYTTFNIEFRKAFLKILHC
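DiscoveRx PathHunter D2 beta-arrestin cells (2,100/well) attached overnight, then compound-stimulated 90 min at 37 C in HBSS/10 mM HEPES/0.1% Tween-20 buffer; beta-galactosidase complementation read by luminescence after 1 h at ambient temperature. Dopamine 57 uM final (EC100) as control.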
PINK1 expr mod: modulators of PINK1 expression; 410,000 compounds, 0.2% hits; PINK1 immunofluorescence, high-content cytometry, 24 h; Potency, µM (doses to about 76.6 µM), for the others: at the highest dose activation (PINK1 increase), hits mostly activators; active = well fitted activation curve with a large enough effect; inconclusive = small, poorly fitted or top-dose-only effect; inactive = flat fitted curve, though single readings scatter; cell line not stated here;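 also: potency is read from the fitted curve at half-maximal effect; % of control where 0% means no effect; nearly all actives have a fitted effect of over 65% in size; a mitochondrial uncoupler was the plate control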
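Cells are seeded, rested 12 hours, then given compound at five concentrations or DMSO for 24 hours. After fixation, blocking and antibody staining, PINK1 amount and mitochondrial localization are scored; CCCP serves as control.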
gsp antagonist: antagonists of gsp mutant (McCune-Albright syndrome); AID 624288; 340,000 compounds, 0.4% hits; gsp-mutant cells, cAMP HTRF, 30 min; control for the full effect not named in the record; Potency, µM (top dose mostly 76.9 µM), for the others: top-dose activity change, negative = inhibition, hits mostly inhibitors; active = falling curve of any shape with a large fitted effect; inconclusive = falling curve, mostly with a smaller effect; inactive = flat or rising curve; cell line not stated here;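 also: intracellular cAMP measured with PDE inhibitor Ro 20-1724 present during compound exposure; potency is read from the fitted curve at half-maximal effect; % is scaled to controls: 0 for no effect and ±100 for the full control effect; nearly all actives have a fitted effect of over 65% in size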
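Cells in G418 medium, seeded 16-24 h, 37C; buffer exchange to DPBS + 1 mM CaCl2, 0.5 mM MgCl2, 0.05% BSA; cpds in DMSO + […] (300 uM stock), 30 min 37C; HTRF cAMP detection.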
Menin-MLL FL inh: menin-MLL binding inhibition, fluorescein peptide | Fluorescence polarization, fluorescein-MLL peptide displacement from menin | FP activity change, % at 61.4 µM | 290,000 tested, under 10 active; inconclusive = falling polarisation curve, or a change in total fluorescence; inactive = total fluorescence flat and polarisation flat or rising; no compound was filed as active; the % refers to the polarisation; negative = inhibition;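 also: % of control where 0% means no effect; inhibitors lower the polarisation; unlabelled MLL peptide was the positive control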
gsp ag: agonists of gsp mutant (McCune-Albright syndrome) | gsp mutant cells, cAMP HTRF, 30 min; control for the full effect not named in the record | Potency, µM (series often up to 76.9 µM), for the others: at the highest dose activation (cAMP increase), most hits filed as activators | 340,000 compounds, 0.13% hits | AID 624287; active = well fitted activation curve with a large enough effect; inconclusive = small, poorly fitted or top-dose-only effect, or another doubt; inactive = no such curve, though single readings can be large or run the other way; cell line not stated here;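 also: phosphodiesterase inhibitor Ro 20-1724 added with compounds to block cAMP breakdown; potency is read from the fitted curve at half-maximal effect; nearly all actives have a fitted effect of over 60% in size; about a fifth of the inactives were tested at one dose only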
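Cells stably selected in G418 were plated at 2000/well, grown 16-24 hr, then given compounds in DMSO with the PDE inhibitor […] (300 uM solution added) for 30 min at 37C; cAMP was read by HTRF.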
An asterisk follows results filed as active; ? = inconclusive; . = not tested or not shown; [ ] = dose if it differs, or a comment. Hits appear at their usual frequency; any-hit rate near 5.1%.

#	SMILES	Sfp inh	ClpP mod	D2 ag	PINK1 expr mod
1	CC(C)(C)c1cc(C(F)(F)F)nc(SCCCNC(=O)c2ccco2)n1	17.2%	1.1%	2.3	-2.2%
2	CCc1ccc(N(CC(=O)NCc2ccco2)C(=O)CCC(=O)Nc2ccccn2)cc1	12.7%	.	-2.4	0.0%
3	COc1ccccc1CNS(=O)(=O)c1ccc(Cl)s1	6.1%	-2.5%	-3.4	0.3%
4	CCCN(C(=O)c1ccco1)c1nnc(-c2ccccc2C)s1	?	-4.6%	8.2	2.2%
5	Cc1nc2ccccc2n1CC(=O)NN	19.7%	1.8%	-6.3	3.0%
6	O=C(O)C1CC=CCC1C(=O)N1CCN(c2nc(-c3ccccc3Cl)c3cc(Br)ccc3n2)CC1 (stereo unspecified)	-15.5%	-3.9%	-2.5	0.8%
7	CN(C)S(=O)(=O)c1ccc(Cl)c(C(=O)NCC2CCCCC2)c1	0.7%	.	7.0	-0.5%
8	O=C(NCC1CCCO1)C1CCN(S(=O)(=O)c2ccccc2)CC1 (stereo unspecified)	1.5%	.	-7.9	0.8%
9	O=C(c1cccc(S(=O)(=O)Nc2ccccc2Cl)c1)N1CCN(c2ccccc2O)CC1	.	0.9%	14.6	-1.5%
10	Cc1ccc(C(=O)OCC(=O)Nc2cccc(S(=O)(=O)N3CCCCC3)c2)o1	.	-0.2%	?	2.2%

#	gsp antagonist	Menin-MLL FL inh	gsp ag
1	2.7%	-0.3	0.0%
2	-4.2%	1.5	-46.8%[inhibitor]
3	-2.6%	6.8	20.9%[15.4 µM]
4	-28.0%	0.8	7.9%
5	-0.1%	0.3	-112.6%[inhibitor]
6	-24.4%	2.8	?
7	5.3%	-5.9	-3.0%
8	-25.1%	-1.2	-0.5%[15.4 µM]
9	?	.	-10.1%
10	-18.6%	.	-76.0%[inhibitor]

Next section.
#	SMILES	Sfp inh	ClpP mod	D2 ag	PINK1 expr mod
11	CCCc1c(O)nc(SCC(=O)O)[nH]c1=O	-9.2%	1.7%	7.9	0.0%
12	COc1ccc(/C=C2\CCc3ccccc3C2=O)cc1CN1CCOCC1	7.3%	.	3.0	-2.1%
13	O=C(NC(N1CCOCC1)C(Cl)(Cl)Cl)c1cc([N+](=O)[O-])cc([N+](=O)[O-])c1 (stereo unspecified)	-9.2%	0.5%	-2.5	0.9%
14	CCOC(=O)N1CCC(N(CCN(C)C)C(=S)Nc2cc(C)ccc2C)CC1	-9.6%	2.0%	-2.2	0.3%
15	C[C@@]12CCC3[C@@](CCC4[C@@]3(C)CCC[C@@]4(C)C(=O)O)(CC1=O)C2 (stereo partly specified)	.	-3.0%	-2.6	-0.4%
16	CCC(C)Oc1cccc(C(=O)Nc2ccccc2N2CCOCC2)c1 (stereo unspecified)	-20.7%	-1.7%	0.5	-0.9%
17	Cc1cc2c3c([nH]c2cc1S(=O)(=O)NCc1ccc(CN2CCCCCC2)o1)CC(C)(C)CC3=O	5.8%	0.6%	-6.3	1.1%
18	Cc1ccc(S(=O)(=O)N(CC(=O)Nc2ccccc2)C(=O)N2CCN(C)CC2)cc1	.	-4.8%	-0.3	4.6%
19	Cc1nn(CC(=O)NCCCc2ccccc2)c(=O)c2cc3occc3n12	10.3%	3.7%	2.7	2.3%
20	COc1ccc(NC(=O)c2ccc(S(=O)(=O)N3CCOCC3)o2)cc1	26.3%	1.7%	-2.2	0.5%

#	gsp antagonist	Menin-MLL FL inh	gsp ag
11	-1.6%	-1.5	7.7%
12	-18.2%	-0.3	3.0%[15.4 µM]
13	-2.7%	-2.7	-3.6%
14	3.0%	1.9	2.5%
15	-6.4%	.	.
16	-12.9%	5.6	7.7%
17	-15.7%	-0.2	26.0%
18	-14.3%	.	5.0%
19	4.3%	.	18.4%
20	6.7%	8.0	1.9%

Part of the list above in order of length of the SMILES, low to high:
#	SMILES	Sfp inh	ClpP mod	D2 ag	PINK1 expr mod
11	CCCc1c(O)nc(SCC(=O)O)[nH]c1=O	-9.2%	1.7%	7.9	0.0%
12	COc1ccc(/C=C2\CCc3ccccc3C2=O)cc1CN1CCOCC1	7.3%	.	3.0	-2.1%
20	COc1ccc(NC(=O)c2ccc(S(=O)(=O)N3CCOCC3)o2)cc1	26.3%	1.7%	-2.2	0.5%
14	CCOC(=O)N1CCC(N(CCN(C)C)C(=S)Nc2cc(C)ccc2C)CC1	-9.6%	2.0%	-2.2	0.3%
10	Cc1ccc(C(=O)OCC(=O)Nc2cccc(S(=O)(=O)N3CCCCC3)c2)o1	.	-0.2%	?	2.2%
9	O=C(c1cccc(S(=O)(=O)Nc2ccccc2Cl)c1)N1CCN(c2ccccc2O)CC1	.	0.9%	14.6	-1.5%
15	C[C@@]12CCC3[C@@](CCC4[C@@]3(C)CCC[C@@]4(C)C(=O)O)(CC1=O)C2 (stereo partly specified)	.	-3.0%	-2.6	-0.4%
17	Cc1cc2c3c([nH]c2cc1S(=O)(=O)NCc1ccc(CN2CCCCCC2)o1)CC(C)(C)CC3=O	5.8%	0.6%	-6.3	1.1%
13	O=C(NC(N1CCOCC1)C(Cl)(Cl)Cl)c1cc([N+](=O)[O-])cc([N+](=O)[O-])c1 (stereo unspecified)	-9.2%	0.5%	-2.5	0.9%

#	gsp antagonist	Menin-MLL FL inh	gsp ag
11	-1.6%	-1.5	7.7%
12	-18.2%	-0.3	3.0%[15.4 µM]
20	6.7%	8.0	1.9%
14	3.0%	1.9	2.5%
10	-18.6%	.	-76.0%[inhibitor]
9	?	.	-10.1%
15	-6.4%	.	.
17	-15.7%	-0.2	26.0%
13	-2.7%	-2.7	-3.6%

Further compounds.
#	SMILES	Sfp inh	ClpP mod	D2 ag	PINK1 expr mod
21	COc1ccc(NC(=O)CS(=O)c2cccc(Cl)c2)cc1 (stereo unspecified)	19.9%	2.3%	-4.1	0.5%
22	N/C(=N\OC(=O)Cc1ccc(Cl)cc1)c1cccnc1	3.1%	0.7%	0.9	9.7%[38.3 µM]
23	O=C(c1ccoc1)N1CCCC(N2CCN(c3ccc(F)cc3)CC2)C1 (stereo unspecified)	11.1%	-0.8%	-6.0	-0.3%
24	CC1=NN(Cc2ccccc2)C(=O)C1C(c1ccncc1)C(C#N)C#N (stereo unspecified)	?	-2.8%	-3.2	0.5%
25	Cc1cc(C)cc(-n2ncc3c2CCCC3NC(=O)c2csnn2)c1 (stereo unspecified)	-1.4%	-0.8%	-2.2	2.3%
26	Cc1cccc2c1cnn2C(=O)CCC(=O)N1CCC(C)CC1	-2.2%	-0.5%	-1.2	0.2%
27	CCNC(=O)N1CCCC(C(=O)c2ccc(-c3ccccc3)cc2)C1 (stereo unspecified)	4.2%	-1.4%	-1.5	0.1%
28	O=C1CC(c2nc3ccccc3[nH]2)CN1c1cccc(C(F)(F)F)c1 (stereo unspecified)	6.9%	3.6%	-0.8	1.7%
29	CC(=O)Cn1cnc2sc(-c3ccccc3)cc2c1=O	-6.9%	-25.0%	-2.7	-0.8%
30	O=C(NNC(=O)c1ccc(-n2cncn2)c([N+](=O)[O-])c1)c1cccc(Cl)c1	.	?	0.9	-0.2%

#	gsp antagonist	Menin-MLL FL inh	gsp ag
21	5.1%	.	-26.6%
22	7.2%	-8.5	1.5%
23	19.6%	-5.1	?
24	1.5%	4.3	19.0%
25	-4.8%	0.7	7.8%
26	3.8%	0.3	-3.9%
27	-18.8%	1.9	?
28	-7.4%	0.7	-1.4%
29	-2.1%	2.0	21.5%
30	-0.6%	.	-1.9%[15.4 µM]

Later entries:
#	SMILES	Sfp inh	ClpP mod	D2 ag	PINK1 expr mod
31	NNC(=O)CNS(=O)(=O)c1ccc([N+](=O)[O-])cc1	-21.3%	.	7.0	-3.6%
32	CC(C)NS(=O)(=O)c1ccc2c3c(cccc13)CC2	11.7%	.	2.6	3.4%
33	COc1cccc(NC(=O)CSc2nnnn2C2CCCC2)c1	12.3%	.	0.0	0.7%
34	COC(c1ccccc1)c1nnc(CCC(=O)NCc2cccc(-n3cccn3)c2)o1 (stereo unspecified)	8.5%	.	2.1	4.1%

#	gsp antagonist	Menin-MLL FL inh	gsp ag
31	6.7%	2.2	?
32	11.0%	0.4	-0.5%[15.4 µM]
33	4.1%	.	21.3%[15.4 µM]
34	-1.9%	-0.7	8.8%
